# PAD4 inh: PAD4 (human) enzyme inhibition; AID 485272; 330,000 compounds, 0.41% hits; inhibition, % at 6.36 µM; Q9UM07; recombinant PAD4, RCA probe fluorescence polarization;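 active means percent inhibition above a cutoff equal to the mean of all tested compounds plus 3 SD, cut at about 15% in these data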;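 further: 0% = PAD4 with RCA probe and DMSO and 100% = probe without PAD4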
# LYPLA1 counter: LYPLA1 (human) inhibition in PME1 counter-screen; recombinant LYPLA1, FP-Rh probe fluorescence polarization; inhibition, % at 5.9 µM; 320,000 compounds, 0.16% hits;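 active means inhibition above the mean of all tested compounds plus 3 SD, set per campaign, cut at about 14% in these data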;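 further: inhibitors block serine hydrolase probe labeling of LYPLA1 so polarization falls; 0% = enzyme with DMSO and 100% = wells lacking LYPLA1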
# Target sequence (O75608 whole entry, looked up): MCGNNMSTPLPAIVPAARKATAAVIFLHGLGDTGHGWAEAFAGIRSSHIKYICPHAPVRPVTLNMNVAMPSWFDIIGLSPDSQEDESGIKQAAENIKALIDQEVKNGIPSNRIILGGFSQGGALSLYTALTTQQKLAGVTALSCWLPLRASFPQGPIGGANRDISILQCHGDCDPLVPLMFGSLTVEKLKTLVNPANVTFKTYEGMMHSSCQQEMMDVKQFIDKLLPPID
# PAFAH1B3 FP inh: PAFAH1B3 (human) inhibition; Q15102; recombinant PAFAH1B3, FP-rhodamine probe, fluorescence polarization; inhibition, % at 3.39 µM; 340,000 compounds, 0.28% hits; AID 492972;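 active means inhibition above the screen-wide average of all tested compounds plus 3 SD, cut at about 25% in these data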;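 further: 0% = enzyme with DMSO only and 100% = wells lacking PAFAH1B3 protein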
# Target sequence (Q15102 whole entry, looked up): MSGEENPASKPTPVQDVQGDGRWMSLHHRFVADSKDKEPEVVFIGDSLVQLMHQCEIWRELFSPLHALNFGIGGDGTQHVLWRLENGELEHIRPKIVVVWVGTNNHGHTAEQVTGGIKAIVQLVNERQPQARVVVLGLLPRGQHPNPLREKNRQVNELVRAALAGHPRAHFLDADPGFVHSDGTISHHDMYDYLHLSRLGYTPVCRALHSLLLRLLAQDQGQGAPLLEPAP
# PAFAH2 FP inh: inhibitors of human PAFAH2. recombinant PAFAH2, FP-rhodamine activity probe, fluorescence polarization. inhibition, % at 3.39 µM. 340,000 compounds, 0.99% hits. AID 492956;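 active means inhibition above the mean over all tested compounds plus 3 SD, cut at about 30% in these data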;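 further: inhibitors block probe labeling of enzyme so polarization drops; 0% = enzyme with DMSO and 100% = wells lacking PAFAH2 protein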
# LYPLA2 counter: counter-screen for PME1 inhibitors: inhibitors of human LYPLA2. O95372. recombinant LYPLA2, FP-Rh probe fluorescence polarization. inhibition, % at 5.9 µM. 320,000 compounds, 0.38% hits. AID 2177;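 active means inhibition above the screen-wide mean plus 3 SD, limit set per campaign, cut at about 26% in these data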;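 further: 0% = LYPLA2 with DMSO and 100% = wells lacking LYPLA2 enzyme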
# Target sequence (O95372 whole entry, looked up): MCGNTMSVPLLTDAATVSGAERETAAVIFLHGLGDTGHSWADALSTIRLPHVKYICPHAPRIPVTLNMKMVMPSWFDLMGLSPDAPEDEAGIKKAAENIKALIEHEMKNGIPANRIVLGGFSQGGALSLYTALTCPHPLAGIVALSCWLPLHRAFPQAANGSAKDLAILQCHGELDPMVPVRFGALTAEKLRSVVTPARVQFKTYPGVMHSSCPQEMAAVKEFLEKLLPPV
# Active calls of the source: *; x = no result given.
# A first look (2 entries):
SMILES,PAD4 inh,LYPLA1 counter,PAFAH1B3 FP inh,PAFAH2 FP inh,LYPLA2 counter
O=C(c1ccc(O)cc1)c1ccc(C(=O)O)c(C(=O)O)c1,-1,-1,9,0,-3
CCOC(=O)c1cc2ccc3ccccc3c2oc1=O,-1,1,-3,-1,4

# All compounds of this part, from the first entry:
SMILES,PAD4 inh,LYPLA1 counter,PAFAH1B3 FP inh,PAFAH2 FP inh,LYPLA2 counter
O=C(c1ccc(O)cc1)c1ccc(C(=O)O)c(C(=O)O)c1,-1,-1,9,0,-3
CCOC(=O)c1cc2ccc3ccccc3c2oc1=O,-1,1,-3,-1,4
COc1ccc(N2C(N)=NC(N)=NC23CCCC3)cc1,-3,2,4,5,6
COc1cccc(C2NC(=O)NC(C)=C2C(=O)Nc2ccc(C)cc2)c1 (stereo unspecified),3,-1,5,0,5
COC(=O)Oc1ccc(/C=C/C(=O)OC(C)C)cc1OC(=O)OC,-3,-2,6,5,1
O=C(CSc1nnc(COc2ccc(Br)cc2)o1)N1CCOCC1,0,-2,5,-4,-2
COc1ccc(C2NC(=O)NC(C)=C2C(=O)Nc2cccc(C)c2C)cc1 (stereo unspecified),2,2,0,-1,0
Cn1c(CCN2CCCCC2)nc2cc([N+](=O)[O-])ccc21,1,-1,8,1,2
Cc1ccsc1C(=O)OCC(=O)Nc1cccc(S(=O)(=O)NC2=NCCCCC2)c1,-3,-4,4,46*,1
CCc1cc(C(=O)c2ccc(OC)cc2)c(NC(=O)CC(C)(C)CC(=O)O)s1,5,0,4,5,-1
CCn1c(SCC(=O)N(C(C)C)C(C)C)nnc1-c1cc2ccccc2cc1O,-2,1,10,12,0
CCOC(=O)c1ccc(NC(=O)CSc2nnc(-c3cccs3)n2C)cc1,0,2,1,1,4
Cc1ccc(-c2nn3c(C)nnc3s2)cc1NCc1c(F)cccc1Cl,-1,0,-5,-1,1
CN(c1ccccc1)S(=O)(=O)c1ccc(C(=O)OCC(=O)NC(N)=O)cc1,3,-2,2,1,3
COC(=O)C1=NN(c2cccc(C)c2)C2C(=O)N(c3ccccc3OC)C(=O)C12 (stereo unspecified),-2,-4,12,5,-7
Cc1cc2[nH]c(=O)c(=O)[nH]c2cc1S(=O)(=O)NC1CCCCC1C (stereo unspecified),-4,1,-1,0,-2
CCc1nc(SCC(=O)Nc2cc(C)on2)n[nH]1,-4,-2,-1,10,-4
O=C(Nc1ccc2oc(=O)ccc2c1)c1ccc(-c2cccc(Cl)c2)o1,-6,-21,-30,-30,-75
Nc1ccc2c(c1)C(=O)N(CCCC(=O)O)C2=O,4,-3,3,-3,0
CCCc1nc(-c2cc3cc(C)ccc3[nH]c2=O)no1,-1,-1,6,2,-2
CCOc1ccccc1NC(=O)c1cccc(N2C(=O)CCC2=O)c1,-4,0,0,8,-2
CCc1ccc(OCc2nnc(SCC(=O)N3CCOCC3)o2)cc1,-2,-1,8,-3,2
CC(C)(C)NC(=O)CSc1ncnc2c1nnn2Cc1ccccc1Cl,-3,0,1,-2,6
CC(=O)Oc1cccc(C(=O)Nc2cccc(C(=O)Nc3ccccc3C(=O)O)c2)c1,-2,-2,8,6,-9
CC1Cc2nc(SCC(=O)Nc3ccc(F)cc3)n(C)c(=O)c2S1 (stereo unspecified),3,2,5,2,9
CN(C)CCN(C(=O)CN1C(=O)c2ccccc2C1=O)c1nc2cc3c(cc2s1)OCO3,-3,-3,2,6,3
CCn1c(SCC(=O)Nc2ccc(C(=O)OC)cc2)nnc1-c1cccs1,3,-2,5,4,4
COc1ccc(/C=C(/Sc2nnc(-c3ccc(Cl)cc3)o2)C(=O)O)cc1,1,2,7,-3,6
CC1CCCC(C)N1C(=O)CSc1nnc(COc2cccc3cccnc23)o1 (stereo unspecified),2,0,8,7,2
CCOc1ccc(N/C(SCc2cccc([N+](=O)[O-])c2)=C(/C#N)C(N)=O)cc1,1,-4,0,-7,1
CC(C)C(C(=O)N1CCOCC1)N1C(=O)c2ccccc2C1=O (stereo unspecified),1,-5,4,-3,-2
COc1ccc(-c2nnc(NC(=O)c3cc(C)on3)s2)cc1,2,-2,5,3,-1
O=C(Nc1ccc2oc(=O)ccc2c1)c1ccco1,-5,-2,3,-7,11
O=C(CSc1nnc(COc2ccc(F)cc2)o1)N1c2ccccc2CCc2ccccc21,-4,-6,4,-2,-8
CCOc1ccc(NC(=O)c2cnsn2)cc1,2,-1,-2,2,3
COc1ccc(C(=O)Nc2nnc(-c3ccccc3)o2)cc1OC,2,3,6,1,6
COc1ccc(OCc2nnc(SCC(=O)c3ccccc3)o2)cc1,-3,-2,3,4,-2
CC[C@H](C)[C@H](NC(N)=O)C(=O)NCCc1ccc(OC)c(OC)c1,-2,-4,9,-1,-4
O=C1Nc2cc(C(=O)N3CCOCC3)ccc2S/C1=C\c1ccccc1,-1,1,0,4,2
O=C(Nc1ccccc1Oc1ccccc1)c1cccc([N+](=O)[O-])c1,-5,2,7,4,-2
c1ccc(-n2c(SCC3CCCCO3)nnc2-c2cnccn2)cc1 (stereo unspecified),0,-1,5,-2,12
O=C(CSc1cn[nH]n1)Nc1ccccc1F,-2,1,4,-3,-2
O=C(C1CCCN(CCCc2ccccc2)C1)N1CCCCCC1 (stereo unspecified),0,2,6,-8,-3
CC(=O)NC1(C(F)(F)F)C(=O)Nc2c1c(=O)[nH]c(=O)n2-c1ccccc1 (stereo unspecified),-6,-1,9,2,1
Cc1ccc(S(=O)(=O)CC(=O)c2cc3cccc(C)c3oc2=O)cc1,2,0,8,5,7
CCN(CC)CCN(C(=O)c1cc2ccccc2cc1OC)c1nc2ccc(F)cc2s1,-2,0,-9,-9,-5
COc1ccc(-c2cnn(C3CCS(=O)(=O)C3)c2N)cc1 (stereo unspecified),-2,-6,9,5,-8
CCCc1nc(-c2cc3ccc(C)cc3[nH]c2=O)no1,-1,-1,1,9,5
CC(CN1CCOCC1)C(=O)c1ccccc1 (stereo unspecified),-2,1,-2,6,3
COc1ccc(C(C#N)Nc2ccccc2)cc1 (stereo unspecified),-3,1,x,x,-3

# Additional structures follow:
SMILES,PAD4 inh,LYPLA1 counter,PAFAH1B3 FP inh,PAFAH2 FP inh,LYPLA2 counter
CCOc1ccccc1N1C(=O)CC(N(O)c2ccccc2)C1=O (stereo unspecified),-3,1,1,2,5
O=C(NCCc1ccc(Cl)cc1)C(=O)Nc1cc2c3c(c1)CC(=O)N3CCC2,1,4,-3,4,4
Cc1sc2nc(CN3CCCC3)nc(N3CCN(C(=O)c4ccco4)CC3)c2c1C,0,-1,-2,1,-1
Cc1cccc(OCCNC(=O)CSc2ccc(C(F)(F)F)cc2[N+](=O)[O-])c1,-2,-3,8,0,-2
CCOC(=O)C1CCN(C(=O)c2ccc3c(c2)NC(=O)/C(=C\c2ccc(C)cc2)S3)CC1,0,4,-1,1,3
O=C(CCl)NC(Cc1c[nH]c2ccc(OCc3ccccc3)cc12)C(=O)O (stereo unspecified),-2,-3,4,0,0
COc1ccc(C(=O)c2sc(Nc3ccccc3)nc2C)cc1,-2,-7,-8,8,5
Cc1ccc(-n2c(SCC(=O)Nc3cc(C)on3)nc3c(c2=O)SC(C)C3)cc1 (stereo unspecified),-1,-2,-7,-5,6
Cc1ccc(NC(=S)NC(NC(=O)c2ccccc2)C(Cl)(Cl)Cl)c(C)c1 (stereo unspecified),-7,-21,2,-18,-49
Cc1ccc2nc(NC(=O)CSc3nc4c(c(=O)n3C)SC(C)C4)sc2c1 (stereo unspecified),1,-7,4,-2,-3

# Ordered by count of non-hydrogen atoms (largest number first): part of the list above.
SMILES,PAD4 inh,LYPLA1 counter,PAFAH1B3 FP inh,PAFAH2 FP inh,LYPLA2 counter
CCOC(=O)C1CCN(C(=O)c2ccc3c(c2)NC(=O)/C(=C\c2ccc(C)cc2)S3)CC1,0,4,-1,1,3
Cc1ccc(-n2c(SCC(=O)Nc3cc(C)on3)nc3c(c2=O)SC(C)C3)cc1 (stereo unspecified),-1,-2,-7,-5,6
O=C(NCCc1ccc(Cl)cc1)C(=O)Nc1cc2c3c(c1)CC(=O)N3CCC2,1,4,-3,4,4
Cc1ccc(NC(=S)NC(NC(=O)c2ccccc2)C(Cl)(Cl)Cl)c(C)c1 (stereo unspecified),-7,-21,2,-18,-49
CCOc1ccccc1N1C(=O)CC(N(O)c2ccccc2)C1=O (stereo unspecified),-3,1,1,2,5

# Additional structures:
SMILES,PAD4 inh,LYPLA1 counter,PAFAH1B3 FP inh,PAFAH2 FP inh,LYPLA2 counter
COc1ccc(NC(=O)/C(C#N)=C/c2ccc(Br)o2)cc1,-3,-5,-4,0,-2
C=CCn1c(CNC(=O)c2ccccc2F)nnc1SCC(=O)N1CCOCC1,-9,-5,8,1,-14
COc1ccc(OCCNC(=O)CSc2ccc(C(F)(F)F)cc2[N+](=O)[O-])cc1,2,4,8,4,0
COC(=O)CSc1nc(NC(C)=O)nc(C)c1Br,0,-4,-3,6,2
CC(=O)n1cc(C(C[N+](=O)[O-])SCCN)c2ccccc21 (stereo unspecified),1,-5,10,-2,7
CCCCCC(O)(c1ccc(OCC)cc1)C(CN1CCOCC1)c1ccccc1 (stereo unspecified),-3,-1,14,-2,-3
N#Cc1ccc(OCC(=O)Nc2cccc(S(=O)(=O)NC3=NCCCCC3)c2)cc1,0,-1,5,1,3
CCOC(=O)Nc1cccc(Nc2ccccc2)c1,3,2,9,-2,15
CC1Cc2nc(SCC(=O)N3CCCc4ccccc43)n(C)c(=O)c2S1 (stereo unspecified),-4,2,0,-6,1
COc1ccccc1N1C(=O)C2C(C(=O)c3ccccc3)=NN(c3ccccc3OC)C2C1=O (stereo unspecified),-5,2,10,1,5
O=C(NN1CC(C(=O)OCc2ccc(Br)cc2)CC1=O)c1ccccc1 (stereo unspecified),1,-3,-4,6,1
CC(C)NC(=O)C(OC(=O)c1ccccc1)C(OC(=O)c1ccccc1)C(=O)O (stereo unspecified),-3,1,0,-7,-1
CC1(C)CC(NC(=O)CC2CCCCC2)CC(C)(C)N1,-5,1,9,-3,-1
CC/C(=N\NC(=O)c1ccncc1)C12CC3CC(CC(C3)C1)C2,-1,-4,9,-3,1
COc1ccc(OC)c(NS(=O)(=O)c2ccc3c(c2)n(C)c(=O)n3C)c1,-1,2,4,5,0
CC[C@H](C)[C@H](NC(N)=O)C(=O)Nc1ccccc1F,-1,3,2,3,2
O=Nc1c2nc3ccccc3n(O)c-2c2ccccc12,-4,-37,54*,11,-47
Cc1ccc(OCc2nnc(SCC(=O)Nc3cc(C)on3)n2C)cc1,4,6,4,-8,7
CCC(C)C(NC(N)=O)C(=O)Nc1ccc(OCc2ccccc2)cc1 (stereo unspecified),-4,-2,0,2,0
CC(C)Cc1cc(C(=O)Nc2sc3c(c2C#N)CCCC3)no1,0,1,-7,11,3
C=CCn1c(CCNC(=O)c2ccccc2F)nnc1SCc1nc2ccccc2c(=O)[nH]1,-3,-2,1,-13,-2
CCOc1ccc(N2CC(C(=O)NCCN3C(=O)S/C(=C\c4cccnc4)C3=O)CC2=O)cc1 (stereo unspecified),-4,8,2,8,6
O=C1OC(c2ccc(Br)cc2)=N/C1=C\c1ccco1,-3,-1,x,x,-1
CCOC(=O)C1CCCN(c2nc3ccccc3nc2C(C#N)C(=O)NCc2ccccc2)C1 (stereo unspecified),-6,-1,7,3,3
COc1ccc(NC(=O)c2cccnc2Nc2ccccc2)cc1,-4,-5,4,6,5
CC(C)OC(=O)c1cc(=O)[nH]c2ccccc12,-3,3,-1,0,14
Cc1ccc(Nc2ncccc2C(=O)O)cc1C,-1,-1,-4,-2,2
O=C(NCc1ccco1)c1ccc(Cn2c(=O)c3ccccc3n(Cc3cccc(Cl)c3)c2=O)cc1,-4,-13,-19,-14,-20
COc1ccc(OC)c(NC(=O)CSc2nc(N)c(-c3ccccc3)c(=O)[nH]2)c1,-4,0,-7,-3,0
CCCCNC(=O)NS(=O)(=O)c1ccc(NC(=O)C(NC(N)=O)C(C)CC)cc1 (stereo unspecified),2,3,2,2,-7
FC(F)(F)c1cccc(CN2CCCCCC2)c1,6,1,9,3,-3
Cc1ccc(C2=NNC(C(O)C(O)C(O)C(O)CO)S2)cc1 (stereo unspecified),1,-3,0,-4,-3
Cc1ccccc1OCCNC(=O)CSc1ccc(C(F)(F)F)cc1[N+](=O)[O-],-4,-2,7,3,1
Cc1sc2ncnc(SCC(=O)N3CCC(c4noc5ccc(F)cc45)CC3)c2c1C,-5,0,6,4,2
CCCCOc1ccc(N2C(=O)CC(N(O)c3ccccc3)C2=O)cc1 (stereo unspecified),-4,0,6,1,4
CC1C(=O)Nc2ccc(S(=O)(=O)NCCc3ccc(Cl)cc3)cc2NC1=O (stereo unspecified),4,-3,3,0,2
CC1(C)SC(=S)N(Cc2ccc3c(c2)OCO3)C1N(O)C(=O)NC1CCCCC1 (stereo unspecified),-3,0,-3,4,4
O=C1CC(c2cccc(Cl)c2)CC(O)=C1C=NCCCO (stereo unspecified),-1,1,8,-1,2

# Screening data from PubChem.

# The list is partial; the hit share may differ from the screen's.
